From PubChem BioAssay
T cruzi inh – blocks replication of Trypanosoma cruzi; AID 1885; hit rate 1.4% among 300,000; inhibition, % (concentration not given with the values); T. cruzi beta-gal in NIH3T3, luminescence, 90 h;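 active means mean inhibition across valid replicates above about 55%, limit read from the data; inconclusive means mean below that limit but half or more replicates reach it; inactive means mean below it, under half of replicates reach it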;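 further: signal also drops with host cell toxicity which is not excluded here; 0% = plate median of DMSO wells and 100% = zero luminescence signal; higher percent means less beta-gal luminescence so fewer parasites; stock transfer was 50 nL into about 50 µL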
Beta apoptosis – beta cell apoptosis inhibition; INS-1E cytokine-induced death, ATP luminescence, 48 h; percent of positive-control rescue, neutral wells zero; hit rate 0.8% among 300,000; protection from apoptosis, % (no concentration beside the values);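 active means all replicates at 75% or more, or half of them and the mean; inconclusive means half reach 75% but not the mean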;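 further: 0% = cytokine-treated negative control wells and 100% = positive control rescue; higher means more ATP so stronger rescue from cytokine killing; wells of about 40 µL received 100 nL stock; the first replicate is given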
FGF22 binding – binders of recombinant human FGF22 by thermal shift; Q9HCT0; SYPRO orange fluorescence; percent of sucrose octasulfate shift, DMSO zero; calls only at 9.99 µM; hit rate 1.5% among 340,000; AID 651658;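 active means melting point raised past a set limit in the mean and every replicate; inconclusive means no clear call; three in four hits are not shown here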
Target sequence (Q9HCT0 whole entry, looked up): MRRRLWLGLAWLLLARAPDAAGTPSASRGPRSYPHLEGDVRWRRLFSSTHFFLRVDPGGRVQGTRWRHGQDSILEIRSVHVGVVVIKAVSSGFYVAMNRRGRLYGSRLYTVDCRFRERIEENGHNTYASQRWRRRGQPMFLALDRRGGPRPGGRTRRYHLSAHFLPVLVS
rRNA inh HTS – inhibitors of bacterial rRNA selective over humanized ribosomes | AID 720706 | E. coli WT GFP vs humanized-ribosome RFP mutants, fluorescence, 24 h; stronger effect = lower value; DMSO median 0, no signal -100 | GFP signal change (wild-type ribosome), % (test concentration not listed) | hit rate 1.6% among 350,000;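 active means significant combined selectivity score with lowered wild-type GFP, culture density cut under 30%, mutant RFP and density less affected; inactive means any of these conditions unmet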; further: one replicate is shown; some compounds called inactive have numbers as strong as hits
E coli growth – inhibitors of Escherichia coli growth | OD600 absorbance (no concentration beside the values) | AID 1053175 | hit rate 0.21% among 330,000 | OD600, 23 h; stronger effect = lower value;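 active means OD600 absorbance below the run mean of sample wells minus 3.6 SD, in any replicate, cut at about 0.56 in these data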;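 further: stock transfer was 300 nL into about 60 µL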
UCH37 inh – human UCH37 deubiquitinating enzyme inhibition | purified proteasome/UCH37, Ub-AMC cleavage fluorescence | inhibition, % (test concentration not listed) | hit rate 0.33% among 330,000 | AID 588478 | Q9Y5K5;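 active means mean of two replicates above 20%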;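 further: 0% = compound-free wells with enzyme and 100% = wells lacking proteasome; stock transfer was 100 nL into about 20 µL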
Target sequence (Q9Y5K5 whole entry, looked up): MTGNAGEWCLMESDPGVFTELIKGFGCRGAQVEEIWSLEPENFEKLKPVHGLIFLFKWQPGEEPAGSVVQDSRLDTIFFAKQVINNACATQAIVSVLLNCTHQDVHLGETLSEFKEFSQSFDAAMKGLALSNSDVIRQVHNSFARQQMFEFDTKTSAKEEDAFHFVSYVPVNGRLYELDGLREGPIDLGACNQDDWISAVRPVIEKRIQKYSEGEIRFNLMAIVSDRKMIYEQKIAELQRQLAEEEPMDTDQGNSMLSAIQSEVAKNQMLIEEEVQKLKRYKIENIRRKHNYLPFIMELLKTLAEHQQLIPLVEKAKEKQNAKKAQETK
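Material: human UCH37 enzyme supplied as purified proteasome complex / Amount: 0.15 nM proteasome as dispensed / Buffer or medium: pH 7.4 Tris-HCl (50 mM) with ovalbumin, ATP-MgCl2, DTT / Times: preincubation 30 min, reaction 25 min, room temperature / Technique: AMC fluorescence from Ub-AMC cleavage, excitation 355 nm, emission 460 nm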
Bfl-1 A1 inh – inhibitors of the anti-apoptotic protein A1, read as caspase activation. MEF A1-2A-BIM cells, Caspase-Glo 3/7 luminescence, 3 h; percent of clofoctol response, vehicle zero. caspase activation, % (concentration not given with the values). hit rate 0.066% among 330,000. AID 2462;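 active means over half of replicate activation scores above 10%, or exactly half above 10 with the replicate mean above 10; inconclusive means replicate mean below 10 yet half the replicates above 10; inactive means over half of replicates below 10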;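 further: wells of about 30 µL received 50 nL stock; many hits fall short of the cut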
AF4-AF9 inh – MLL-AF4/AF9 protein interaction inhibition; P42568; AlphaScreen, biotin-AF4 peptide binding to FLAG-AF9; inhibition, % at 10 µM; hit rate 0.47% among 350,000; AID 651704;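 active means every replicate reaching a set inhibition limit, whatever the replicate mean, cut at about 25% in these data; inconclusive means mean inhibition reaches that limit but some replicates miss it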;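 further: 0% = plate neutral control median and 100% = total signal loss; the record names both 10 and 1 µM as test concentration; the first replicate is given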
Target sequence (P42568 whole entry, looked up): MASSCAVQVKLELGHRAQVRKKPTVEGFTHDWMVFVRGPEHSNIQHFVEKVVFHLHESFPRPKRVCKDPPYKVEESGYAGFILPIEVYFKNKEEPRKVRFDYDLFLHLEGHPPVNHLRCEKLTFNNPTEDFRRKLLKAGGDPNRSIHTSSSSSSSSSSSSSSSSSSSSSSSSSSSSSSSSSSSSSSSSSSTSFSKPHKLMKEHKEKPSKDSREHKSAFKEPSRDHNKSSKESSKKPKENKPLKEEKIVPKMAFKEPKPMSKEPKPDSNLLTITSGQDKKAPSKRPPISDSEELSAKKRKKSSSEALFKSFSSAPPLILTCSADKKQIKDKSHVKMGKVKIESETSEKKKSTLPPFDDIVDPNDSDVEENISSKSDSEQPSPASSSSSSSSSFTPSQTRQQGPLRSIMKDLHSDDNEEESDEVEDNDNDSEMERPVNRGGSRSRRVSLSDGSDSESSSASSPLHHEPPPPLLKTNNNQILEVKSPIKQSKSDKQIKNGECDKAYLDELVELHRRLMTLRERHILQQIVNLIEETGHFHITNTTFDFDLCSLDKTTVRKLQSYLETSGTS
rRNA inh HTS OD600 – second read-out of rRNA inh HTS, no call of its own (marks repeat the call); OD600 change, %; measured here: OD600 growth;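 optical density of the mix in the first replicate; 0 = DMSO median and -100 = no signal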
rRNA inh HTS RFP – recorded beside rRNA inh HTS, whose call it bears; RFP signal change, %; measured here: RFP humanized mutant strains;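 first replicate; 0 = DMSO median and -100 = no signal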
The depositor's hits bear a star; i = inactive; ? = inconclusive; nt = no result given.

SMILES	T cruzi inh	Beta apoptosis	FGF22 binding	rRNA inh HTS	rRNA inh HTS OD600	rRNA inh HTS RFP	E coli growth	UCH37 inh	Bfl-1 A1 inh	AF4-AF9 inh
CC(=O)Nc1ccc(OC(F)(F)C(F)C(F)(F)F)c(NC(C)=O)c1 (stereo not given)	2	-2	nt	nt	nt	nt	0.7	-0.4	0.5	nt
Cc1cccc(NC(=S)NNC(=O)c2sccc2C)c1	-2	-3	nt	nt	nt	nt	0.63	2.0	-5.1	nt
O=C(N1CCOCC1)N1CCN(CC(O)COc2ccc3ccccc3c2)CC1 (stereo not given)	7	-3	nt	nt	nt	nt	0.74	1.4	-0.1	nt
CCOc1ccc(-n2ccc(=O)c(C(=O)Nc3ccc(S(=O)(=O)N4CCOCC4)cc3)n2)cc1	-9	-3	i	-16	-2	-5.3	0.66	-35	-0.7	0.4
CC(C)CCN1CCN(Cc2nc(-c3ccc(F)cc3)cs2)CC1CCO (stereo not given)	42	-1	i	8	4	0.0	0.68	-3.4	-0.5	-7.7
CC(NC(=O)Nc1ccc(O)cc1)(C(F)(F)F)C(F)(F)F	-19	1	nt	nt	nt	nt	0.69	0.8	0.6	nt
CCOc1ccc(N2C(=O)/C(=C/c3ccc(C)o3)N(C)C2=S)cc1	26	-3	i	3	-4	-7.2	0.75	3.8	0.1	1.8
COc1cc(C2Nc3cc(Cl)c(S(N)(=O)=O)cc3S(=O)(=O)N2)ccc1OCc1ccccc1 (stereo not given)	0	4	nt	nt	nt	nt	0.68	4.8	-4.2	nt
CCCCn1c(N)c(N(CCC(C)C)C(=O)CSc2nnc3ccccn23)c(=O)[nH]c1=O	-7	-5	nt	nt	nt	nt	0.72	-1.9	-0.2	nt
O=C(c1ccc2c(c1)OCO2)C1CCCN(Cc2cccn2-c2cccnc2)C1 (stereo not given)	58*	-4	i	2	-4	0.5	0.64	-0.4	-0.4	10

The closing 3 compounds of the section above open the next one:
SMILES	T cruzi inh	Beta apoptosis	FGF22 binding	rRNA inh HTS	rRNA inh HTS OD600	rRNA inh HTS RFP	E coli growth	UCH37 inh	Bfl-1 A1 inh	AF4-AF9 inh
COc1cc(C2Nc3cc(Cl)c(S(N)(=O)=O)cc3S(=O)(=O)N2)ccc1OCc1ccccc1 (stereo not given)	0	4	nt	nt	nt	nt	0.68	4.8	-4.2	nt
CCCCn1c(N)c(N(CCC(C)C)C(=O)CSc2nnc3ccccn23)c(=O)[nH]c1=O	-7	-5	nt	nt	nt	nt	0.72	-1.9	-0.2	nt
O=C(c1ccc2c(c1)OCO2)C1CCCN(Cc2cccn2-c2cccnc2)C1 (stereo not given)	58*	-4	i	2	-4	0.5	0.64	-0.4	-0.4	10
Cc1cc(C(=O)CCl)c(C)n1-c1cccc(S(=O)(=O)N2CCOCC2)c1	-35	-14	i	15	26	8.0	0.65	7.5	1.0	6.3
O=C(Nc1ccccc1Oc1cccnc1)C1CCCN(C/C=C/c2ccc(F)cc2)C1 (stereo not given)	33	4	i	-9	-8	1.8	0.69	2.7	-0.8	4.0
CN1C(=O)SC(Nc2ccc(F)cc2)C1=O (stereo not given)	0	-11	nt	nt	nt	nt	0.67	4.4	0.5	nt
C=CCn1cc([N+](=O)[O-])nc1C	-9	-4	nt	nt	nt	nt	0.7	4.5	0.6	nt
CCC[C@H]1CC(=O)C=C(c2ccc(OC)cc2)ON1C(=O)OC(C)(C)C	nt	nt	i	-10	-12	3.7	0.68	0.9	nt	7.8
COc1cc(CN2CCC(CCC(=O)NC3CC3)CC2)cc(Cl)c1OC	49	-2	i	3	9	-0.4	0.71	5.7	-0.4	-2.0
Nc1ccc(Oc2ccccc2-c2ccccc2)cc1	0	-10	i	-47	-24	-11	0.69	1.3	1.5	2.5
CC(=O)c1ccc(OC(=O)N2CCOCC2)cc1	-13	nt	i	5	3	-2.0	0.65	2.4	1.5	-3.4
O=C(NNC(=O)c1ccccc1O)c1ccc(Cl)c(S(=O)(=O)N2CCCCC2)c1	5	25	i	-10	-43	-2.1	0.6	2.0	0.2	-1.0
CCOc1ccc(N(CC(=O)NCCSCc2ccccc2)S(C)(=O)=O)cc1	-1	-3	i	3	-4	4.0	0.68	-0.4	0.2	2.3
Cc1cc(/C=N/NC(=O)c2ccc(O)cc2)c(C)n1C1CC1	6	-9	i	-3	-5	-6.3	nt	nt	-0.4	1.1
CCCNC(=O)c1nn2c(C(F)(F)F)cc(-c3ccccc3)nc2c1Br	24	2	i	5	6	-5.5	0.68	-3.7	-0.7	-2.6
COc1cccc(-n2c(Cn3nc(C(F)F)cc3C(F)F)n[nH]c2=S)c1	3	-1	i	6	6	3.1	0.68	2.5	-0.3	1.4
Cc1cccc(NC(=O)c2cnn(-c3ccccc3)c2C)c1C	1	8	i	7	9	-0.7	0.68	1.7	-0.9	-13
O=C(COC(=O)C1(c2ccccc2)CCCC1)N1CCNC1=O	nt	-8	i	-6	-13	-2.7	0.71	1.4	0.4	0.5
CCOC(=O)Nc1ccc(NC(=O)c2ccccc2F)cc1	-17	5	i	-2	-17	-4.4	0.72	-31	-5.2	-0.2
O=C(CSc1nnc(-c2ccncc2)o1)N1CCc2ccccc2C1	-11	4	i	-2	4	0.6	0.67	3.9	-0.7	-2.8
CC12C(=O)N(c3cccc4cccnc34)C(=O)C1C1C=CC2C1 (stereo not given)	1	-9	i	7	3	0.0	0.77	1.3	-0.1	-3.3
CCN(CCNC(=O)C1CCN(S(=O)(=O)CC)CC1)c1ccccc1	-8	3	i	7	5	7.6	0.71	3.9	0.8	-36
COc1ccc(C(CNC(=O)c2ccc(C)c(S(=O)(=O)N3CCCCC3)c2)N(C)C)cc1OC (stereo not given)	-8	-5	i	5	5	-3.0	0.67	5.0	?	-0.9
Nc1nc(SCC(=O)c2c(N)n(Cc3ccccc3)c(=O)[nH]c2=O)n[nH]1	-1	-2	i	9	2	-2.0	0.67	1.1	0.1	-16
O=C(NC1CC1)C1CCC(=O)N1C1CCCC1 (stereo not given)	-16	-3	nt	nt	nt	nt	0.71	2.9	0.0	nt
Cc1cccc(NC(=S)NCc2ccccc2)c1C	-5	-4	i	5	5	-0.4	0.6	1.8	-0.2	2.9
NC(=O)c1ccccc1NC(=O)CN1CCN(Cc2ccccc2)CC1	11	-4	i	5	13	0.3	0.68	2.2	0.7	-0.7
CCOc1ccc(/C=C2\SC(=S)N(CCC(=O)Nc3cccc(C(=O)O)c3)C2=O)cc1	1	-2	i	11	21	-0.4	0.69	7.1	-1.9	?
CC(C)[C@H](NC(=O)[C@@H]1Cc2ccccc2CN1C(=O)OC(C)(C)C)C(=O)NCc1ccco1	11	-1	i	2	-1	-2.5	0.66	2.2	0.1	0.4
O=C(c1ccco1)n1nc(-c2ccccc2)nc1NCc1ccco1	-12	-3	nt	nt	nt	nt	0.69	-21	-0.1	nt
O=C(Nc1nccs1)c1ccc(S(=O)(=O)NCC2CCCCC2)cc1	-4	16	nt	nt	nt	nt	0.74	-0.9	-1.6	nt
Cc1nnc(SCC(=O)Nc2nonc2C)s1	-14	2	i	6	11	1.5	0.7	-0.8	0.9	-0.1
O=C(Nc1ccccc1N1CCCC1)c1ccco1	7	-8	nt	nt	nt	nt	0.72	2.4	-0.2	nt
O=C(c1nc2ccc(Cl)cn2c1CNCCn1ccnc1)N1CCCCCCC1	16	-7	i	16	5	0.7	0.64	-1.6	0.4	1.6
CCc1nnc(NC(=O)c2cccc(S(=O)(=O)N3CCN(c4ccccc4)CC3)c2)s1	12	-4	nt	nt	nt	nt	0.78	0.4	0.1	nt
CC(C)C1CCC(C(=O)N[C@H](Cc2ccccc2)C(=O)O)CC1 (stereo not given in full)	-2	-6	nt	nt	nt	nt	nt	3.0	0.8	nt
COc1ccccc1-c1c(C)nn2c(C)c(C(C)=O)cnc12	-2	-9	nt	nt	nt	nt	0.69	3.8	0.6	nt
COc1ccccc1NC(=O)NCCCCc1ccccc1	11	-3	i	1	-30	-2.2	0.67	1.7	0.3	1.2
CCOc1ccc(C(=O)Nc2ccc(N3CCN(C)CC3)cc2)cc1	8	-3	i	10	5	1.3	0.62	5.1	0.3	2.3
O=C1NC[C@H](c2ccccc2)OC(=O)[C@H](Cc2ccc(F)cc2)C/C=C\C[C@H]1CC(=O)N(CCO)Cc1ccccc1	nt	-1	i	14	12	3.5	nt	2.0	-1.2	0.9
CC(=O)N1C(=O)C2(C(C#N)=C(N)Oc3c2c(C)nn3-c2ccccc2)c2ccccc21 (stereo not given)	-2	-7	nt	nt	nt	nt	0.74	-2.8	-0.4	nt
Cc1csc(Nc2ccc(C(=O)O)cc2)n1	0	4	i	4	5	2.5	0.69	4.9	-2.6	-0.7
Cc1cccc(C(C)C)c1NC(=O)C(C)OC(=O)Cn1cnc2c1c(=O)n(C)c(=O)n2C (stereo not given)	-6	-2	i	8	7	-1.6	0.69	-2.2	-0.2	2.2
O=C(CSc1nnc(CNC(=O)c2cccs2)o1)NCC1CCCO1 (stereo not given)	5	-1	i	4	8	-2.0	0.71	2.0	0.8	0.6
CCCCc1ccc(NC(=O)CC(C)=O)cc1	-8	1	nt	nt	nt	nt	0.7	3.4	-0.4	nt
COC(=O)CN(C)C(=O)CC1C(=O)NCCN1CC(C)(C)C (stereo not given)	-4	-6	i	2	4	-1.8	0.71	-6.6	2.5	0.3
CCNCC(=O)N1c2ccccc2CCc2ccc(NC(=O)OC(C)C)cc21	27	-1	i	22	7	5.3	0.69	1.9	0.5	6.9
CCN(CC)CCN(C(=O)/C=C/c1cccs1)c1nc2ccc(F)cc2s1	19	10	i	0	1	4.0	0.69	2.9	-0.6	13
O=C(NCc1cccnc1)c1ccc(NC(=O)c2ccc([N+](=O)[O-])cc2)cc1	-23	104*	i	0	8	-1.7	0.69	3.3	1.2	1.1
CC(C)(C)Nc1nc(NN)nc(NC(C)(C)C)n1	?	4	nt	nt	nt	nt	0.68	2.9	0.1	nt
O=C1c2ccccc2C(=O)N1c1cccc2cccnc12	-6	-9	nt	nt	nt	nt	0.71	1.4	0.1	nt
O=C(CSCC(=O)Nc1nc(-c2ccc3c(c2)OCO3)cs1)Nc1nccs1	4	-5	i	-15	-18	3.0	0.75	1.8	-1.9	6.6
O=C(NC1CC(=O)N(c2ccccc2)C1)C1CC1 (stereo not given)	-7	4	i	0	7	-1.7	0.71	3.7	0.2	-28
Cc1c(NC(=O)COC(=O)/C=C/c2ccc(Cl)cc2)c(=O)n(-c2ccccc2)n1C	-7	-5	nt	12	7	1.9	0.65	0.2	0.2	-1.4
Cc1ccc(C(=O)NC(=S)NNS(=O)(=O)c2ccccc2)cc1	-9	11	i	-18	-12	2.6	0.67	5.1	-0.4	-8.0
CCOC(=O)C1CCCN(C(=O)N2CCOCC2)C1 (stereo not given)	-17	-8	nt	nt	nt	nt	0.66	5.0	0.2	nt

These rows are one share of the data; the hit share may differ from the screen's.
